Biofilm kill mix: mixture kills Candida albicans biofilm cells. C. albicans biofilm persisters + clotrimazole, fluorescence viability; primary screen in compound mixtures of four per well. inhibition, % at 7.6 µM. 0.02% of 120,000 active. AID 1242;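 active means inhibition above 30.3% in the primary screen of four-compound pools, then above 30% when the compound was retested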;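 further: compounds exposed to preformed 24 h biofilms for 48 h; the number belongs to the whole pool; some results filed as inactive read as strong as hits; inactives centre near 12; 0% = biofilm with clotrimazole alone and 100% = kill control; retested singly at about 60 µM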
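Assay system: C. albicans biofilms / Medium: RPMI/MOPS medium, pH 7.0 / Schedule: biofilm formation 24 h, compound exposure 48 h, 37 °C / Measured by: Alamar Blue fluorescence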
The depositor's hits bear a star. Not all compounds are listed, so the mix of outcomes need not match the whole.

SMILES	Biofilm kill mix
COc1ccc(CCNC(=O)Cn2cccc2C(=O)c2ccccc2)cc1OC	13
O=c1cc(-c2ccc(O)cc2)oc2ccccc12	26
O=C(COc1ccc(Cl)cc1Cl)N1CCN(c2ccccn2)CC1	8
CCOc1ccc(CCNC(=O)C2CCCN2C(=O)OCc2ccccc2)cc1OCC (centres undefined)	15
COc1ccc(C(=O)CSc2nc(C(C)(C)C)nc3ccccc23)cc1	6
COc1ccc(CNn2c(-c3cccs3)nc3ccccc3c2=O)cc1OC	7
COc1ccc(CNC(=O)CCC(=O)N2CCN(S(=O)(=O)c3ccc(Cl)cc3)CC2)cc1	12
COCC(=O)Nc1ccccc1-c1ccccc1	7
COc1ccc(OC)c(-c2cc(C(F)(F)F)c3c(n2)sc2c(O)cc(=O)[nH]c23)c1	5
CN(Cc1ccccc1)S(=O)(=O)c1cccc2nsnc12	6
COc1ccc(NC(=O)c2ccc(Oc3ncccn3)cc2)cc1	-16
CCCCC(CC)C1OCC(C[N+]2(C)CCOCC2)O1 (centres undefined)	16
CC(C)c1nc(SCC(=O)Nc2c[nH]c(=O)[nH]c2=O)c2cnn(-c3ccccc3)c2n1	-1
O=C(CSc1nnc(SCc2cccc3ccccc23)s1)N/N=C/C=C/c1ccccc1[N+](=O)[O-]	3
Cc1cc(NC(=O)CSc2nccn2C)n(-c2ccccc2)n1	-5
CC(C)C1CC(CCN2CCCCC2)(c2ccccc2)CCO1 (centres undefined)	13
CCN(Cc1ccncc1)Cc1cn[nH]c1-c1cc(OC)c(OC)c(OC)c1	11
CC(=O)c1cccc(CN2CCN(Cc3ccc(C)cc3)C(CCO)C2)c1 (centres undefined)	10
CCN(CC(=O)Nc1ccc(OC)c(Cl)c1)CC(=O)NC(C)C	13
COc1ccc(/C=C/C(=O)OCC(=O)Nc2cc3oc4ccccc4c3cc2OC)cc1	2
Cc1ccc(NC(=O)COc2ncnc3sccc23)cc1S(=O)(=O)N(C)C	8
COc1ccc(-c2nn(C)c(=O)[nH]2)cc1	13
CCNC(=S)N(CCc1ccc(OC)c(OC)c1)Cc1cc2cc(OC)ccc2[nH]c1=O	50
Cc1ccc(-n2nc(-c3ccco3)cc2C(=O)O)c(C)c1	16
COC(=O)c1ccc(C23CC4(C2)[C@H](CN(C)[C@@H]4c2ccccc2)C3c2ccc(Cl)nc2)cc1 (some centres undefined)	15

New compounds follow
SMILES	Biofilm kill mix
COc1ccc(CN(C)CCc2ccccn2)cc1OC	-1
N=C1c2ccccc2CN1c1ccc(S(=O)(=O)N2CCCCC2)cc1	5
Cc1ccc(NC(=O)C(CC(C)C)NC(N)=O)cc1 (centres undefined)	3
COc1ccc(CCNC(=O)c2ccc(SC)cc2OC)cc1	10
CN(C)c1nc(Oc2ccc(OCCOc3ccccc3)nn2)nc(N(C)C)n1	13
CCc1nc2sccc2c(=O)n1N	4
Cc1ccccc1OCC(=O)NCC(=O)N/N=C/c1cccc([N+](=O)[O-])c1	8
O=C(Nc1ccc(Cl)cc1)N1CCN(c2ccccc2)CC1	8
O=C(CCCCC(=O)NC1CCCC1)NC1CCCC1	5
COc1ccc(N2CCN(CCCNC(=O)C3CCN(S(=O)(=O)N4CCOCC4)CC3)CC2)cc1	16
CCC1CCCCN1C(=O)Nc1cc(Cl)ccc1OC (centres undefined)	11
O=[N+]([O-])c1ccc(C(O)CN=Cc2ccc(O)cc2O)cc1 (centres undefined)	12
CC(=O)Nc1ccc(S(=O)(=O)Nc2nc(-c3ccc(C(C)(C)C)cc3)cs2)cc1	6
O=C1CN(C(=O)/C=C/c2ccc(Cl)cc2)c2ccccc2N1	13
Cc1onc(C(N)=O)c1C(=O)Nc1ncc(C(F)(F)F)cc1Cl	2
FC(F)(F)c1ccc(CSc2ccccn2)cc1	2
CN(CC(=O)NC1CCCCCCC1)S(=O)(=O)c1cnc[nH]1	14
O=C(c1ccc(F)cc1)n1c(=S)nc2ccccn21	14
NS(=O)(=O)c1ccc(NC(=S)NCc2ccc(F)cc2)cc1	17
Cc1ccccc1N1CC(=O)Nc2c(oc3nc(-c4ccccc4)cc(C)c23)C1=O	13
Cc1ccc(OCC(=O)N(C)CC(=O)Nc2ccc(F)cc2)c([N+](=O)[O-])n1	18
Cc1cc(=O)[nH]c(CN2CCOCC2)n1	5
Cc1ccccc1OCC(=O)Nc1ccc(NC(=O)c2ccco2)cc1	3
CN(C)CCCN(C(=O)c1ccco1)c1nc2ccc(Br)cc2s1	17
CC1(NC(=O)CC[N+](C)(C)CCO)CS(=O)(=O)CC1S(=O)(=O)[O-] (centres undefined)	11

Four entries from above, as labelled records:
CN(CC(=O)NC1CCCCCCC1)S(=O)(=O)c1cnc[nH]1
  Biofilm kill mix: 14

O=C(c1ccc(F)cc1)n1c(=S)nc2ccccn21
  Biofilm kill mix: 14

NS(=O)(=O)c1ccc(NC(=S)NCc2ccc(F)cc2)cc1
  Biofilm kill mix: 17

Cc1ccccc1N1CC(=O)Nc2c(oc3nc(-c4ccccc4)cc(C)c23)C1=O
  Biofilm kill mix: 13

Three structures already listed, arranged by molar mass, largest number first.
SMILES	Biofilm kill mix
CN(C)c1nc(Oc2ccc(OCCOc3ccccc3)nn2)nc(N(C)C)n1	13
Cc1ccc(OCC(=O)N(C)CC(=O)Nc2ccc(F)cc2)c([N+](=O)[O-])n1	18
CC1(NC(=O)CC[N+](C)(C)CCO)CS(=O)(=O)CC1S(=O)(=O)[O-] (centres undefined)	11

Next part
SMILES	Biofilm kill mix
CCC1SC(CC)C(=O)N(CC(=O)NCCc2ccccc2)C1=O (centres undefined)	4
N#C/C(=C\c1cccc([N+](=O)[O-])c1)c1ccccn1	9
COC(=O)C1=C(C)NC2=C(C(=O)c3ccccc32)C1c1cccc(OC)c1 (centres undefined)	13
Cc1ccc2nc(C)c(C(=O)N/N=C/c3ccco3)cc2c1	4
CSc1ccc(CN2CCCC(CO)(Cc3ccccc3)C2)cc1 (centres undefined)	-1
O=C1c2ccccc2-c2cccc(C(=O)N3CCCCCC3)c21	11
O=C(O)CCNS(=O)(=O)c1cccc(Br)c1	14
O=c1oc2ccccc2c(Nc2cc3ccccc3cc2O)c1[N+](=O)[O-]	-12
Cc1ccc(C(C)C)c(OCC(=O)NN=C2CCCCCCC2)c1	16
CC1(C)CC(=O)C(N=Nc2c(Cl)cc(Cl)cc2Cl)=C(O)C1	5
N#Cc1cc(Oc2ccc(Cl)cc2)c(N2CCOCC2)cc1C#N	16
Cc1occc1C(=O)NC(C)C12CC3CC(CC(C3)C1)C2 (centres undefined)	2
COc1ccc(N2CCN(C(=O)CSc3nnc4c(C)cc5ccccc5n34)CC2)cc1	14
O=C(NC1CCCCC1)c1cc(F)cc2c1OCOC2	7
CC(C)C[C@@H](CSc1ccc(Br)cc1)N1CCN(CCc2ccccc2)CCC1=O	14
O=C(NCCO)c1ccc2c3n(nc2c1)-c1ccc(Cl)cc1CO3	2
Cc1ccc(NC(=O)C(C)OC(=O)c2ccc(NS(=O)(=O)c3ccc(F)c(F)c3)cc2)cc1 (centres undefined)	5
O=C(c1cccnc1)N1CCN(c2ccc3ccccc3n2)CC1	17
Cc1cc(=O)n2c3ccccc3n(CC(O)CN3CCN(CCO)CC3)c2c1C#N (centres undefined)	23
FC(F)(Cl)c1nnc2ccc(Sc3ccccn3)nn12	3
CC1CCN(c2nnc(-c3ccccc3)c3ccccc23)CC1	13
CSCCC(NC(N)=O)C(=O)Nc1cccc(S(=O)(=O)N2CCOCC2)c1 (centres undefined)	1
Cn1cnnc1Sc1cc(N2CCN(S(=O)(=O)c3ccc4ccccc4c3)CC2)ccc1[N+](=O)[O-]	7
Cc1occc1-c1nnc(SCC(=O)N2CCOCC2)n1CC(C)C	19
CC(=O)COC(=O)C1CC(=O)N(c2ccc(C)c(C)c2)C1 (centres undefined)	15

The list goes on:
SMILES	Biofilm kill mix
Cn1c(=O)[nH]c(=O)c2[nH]c(CN3CCN(Cc4ccccc4)CC3)nc21	14
CC(=O)NC(=S)Nc1ccccc1C(=O)Nc1ccccc1	21
Cc1ccccc1N1CCN(C(=O)c2ccccc2NC(=O)c2ccccc2C(=O)O)CC1	7
O=S(=O)(CCOc1ccccc1)N1CCOCC1	11
COc1ccc(C(=O)Nc2ccc3oc(-c4cccnc4)nc3c2)cc1OC	37
CCOc1ccc(/C=C2\SC(=S)N(NC(=O)c3ccncc3)C2=O)cc1OC	15
O=C(/C=C/c1cccc([N+](=O)[O-])c1)NCc1ccc2c(c1)OCO2	12
NC(=S)Nc1cc(Cl)ccc1Cl	16
CC(C)Cn1c(O)c2ccc(C(=O)N=NC(=O)c3cccnc3)cc2c1O	14
CCOc1ccc(-n2c(-c3ccccc3)c[n+]3c2CCCCC3)cc1	31
O=C(NC(=S)Nc1ccc(NC(=O)c2cccs2)cc1)c1cc2ccccc2o1	11
CC(NC(=S)Nc1cccc(C(F)(F)F)c1)C(C)(C)C (centres undefined)	7
CN(c1ccc(C(=O)Nc2ccc(Cl)cn2)cc1)S(=O)(=O)c1ccccc1	15
O=C(NCc1n[nH]c(=S)n1Cc1ccccc1)c1ccccc1	5
CC(C)c1ccc(Nc2ncccc2C(=O)O)cc1	22
CC(C)[C@@H](CO)NC(=O)c1ccc2c3n(nc2c1)-c1ccc(Cl)cc1CO3	14
CCCn1c(=O)c(C(=O)N/N=C/c2ccc(F)cc2)c(O)c2ccccc21	22
CC(C)(C)c1nc(C(C)(C)C)c(Br)c(=O)[nH]1	1
Cc1ccccc1NC(=S)NCC(c1cccnc1)N(C)C (centres undefined)	4
Cc1cc(C)nc(NS(=O)(=O)c2ccc(N/C=C3\CCCC3=O)cc2)n1	14
CCOC(=O)c1nn(-c2ccc(Cl)cc2)c2nc(CC)c(C#N)c(=O)n12	16
CCOCCCNC(=O)C(NC(=O)c1ccc(NC(C)=O)cc1)c1ccccc1 (centres undefined)	-3
COc1cc(C=O)ccc1OCC(=O)NC(C)(C)C	10
CCN(CC)C(=S)SCC(=O)NC12CC3CC(CC(C3)C1)C2	6
Cc1cc(=O)[nH]c(SCC(=O)Nc2ccc(F)cc2)c1C#N	37

Reprinted at random: 6 entries already listed
SMILES	Biofilm kill mix
CN(c1ccc(C(=O)Nc2ccc(Cl)cn2)cc1)S(=O)(=O)c1ccccc1	15
CCN(CC)C(=S)SCC(=O)NC12CC3CC(CC(C3)C1)C2	6
Cc1cc(=O)[nH]c(SCC(=O)Nc2ccc(F)cc2)c1C#N	37
CCOCCCNC(=O)C(NC(=O)c1ccc(NC(C)=O)cc1)c1ccccc1 (centres undefined)	-3
CCOc1ccc(-n2c(-c3ccccc3)c[n+]3c2CCCCC3)cc1	31
CC(NC(=S)Nc1cccc(C(F)(F)F)c1)C(C)(C)C (centres undefined)	7

(listing goes on)
SMILES	Biofilm kill mix
Cc1ncc([N+](=O)[O-])n1CCOC(=O)c1cc(Cl)cc(Cl)c1N	5
COc1ccc2nc(Nc3ccccc3)sc2c1	13
O=C(CCc1ccccc1)Nc1cc(C(=O)O)cc(C(=O)O)c1	30
O=C(CN1CCc2ccccc21)NCc1ccccc1Cl	20
O=C(c1ccccc1)c1ccc2nc(N3CCCCC3)c3nncn3c2c1	9
C[C@@H](C(=O)NCc1ccccn1)[C@@H]1C[C@@]1(C)[C@@H](NC(=O)OCc1ccccc1)c1ccccc1	9
C1CCN(c2nc3nonc3nc2NCC2CCOCC2)CC1	16
Clc1ccc2nc(CSc3ccccc3)cn2c1	11
O=C(NCCc1c[nH]c2ccccc12)/C(=C\c1cccnc1)NC(=O)c1ccco1	-8
O=C(CN(c1cccc(Cl)c1)S(=O)(=O)c1ccc(Cl)cc1)N1CCc2ccccc2C1	22
Cc1nc2ccc(NC(=O)COc3ccccc3)cc2s1	7
CCOC(=O)c1cnc2c(C)c(C)ccc2c1Nc1ccc(S(=O)(=O)Nc2ncccn2)cc1	3
O=C(Nc1cc(S(=O)(=O)Nc2ccccc2Cl)ccc1O)c1cc2c(s1)CCCC2	14
O=C(O)c1cccc(NC(=S)NC(=O)c2ccc(-c3ccc(Cl)cc3)o2)c1	7
COc1ccc(-c2nc(NC(=O)c3ccc(OCC(=O)N4CCOCC4)c(OC)c3)sc2C)cc1	-15
CS(=O)(=O)N1CCN(c2ccc([N+](=O)[O-])c(SCc3ccco3)c2)CC1	13
CCCC(=O)Nc1nnc(-c2ccc3c(c2)OCCO3)o1	16
COc1ccc(CSCC(=O)NCCC(C)C)cc1	16
O=C(O)c1ccc(S(=O)(=O)c2ccc(Sc3ccc(C(=O)O)c(C(=O)O)c3)cc2)cc1	11
CCN(CC)c1ccc2cc(/C(N)=N/NC(=O)c3cccs3)c(=O)oc2c1	20
CCc1nnc(NC(=O)CSc2nnnn2-c2cccc(C(C)=O)c2)s1	1
Cn1c(CSCc2ccc(Cl)cc2)n[nH]c1=S	14
COc1cc(/C(C)=N/Nc2ccc(C(=O)O)cc2)cc(OC)c1OC	10
Nc1c(C(=O)c2ccc(Cl)cc2)sc2nsc(SCCN3CCOCC3)c12	19
CCCCn1c(=O)[nH]c(=O)c2c1nc(-c1ccc(-c3ccc(F)cc3)o1)n2C	20

Following part.
SMILES	Biofilm kill mix
CC1(C)Cc2c(sc3ncn4c(=S)[nH]nc4c23)CO1	7
CCOC(=O)C1=C(c2ccccc2)Nc2ncnn2C1c1ccc(O)cc1 (centres undefined)	23
COc1ccc(S(=O)(=O)Nc2ccccc2OC)cc1NC(=O)c1cc2ccccc2oc1=O	9
COc1cccc(CNC(=O)CC2Sc3ccccc3NC2=O)c1 (centres undefined)	10
O=C(Nc1ccncc1)C1CCC(CNS(=O)(=O)c2cccc3nsnc23)CC1 (centres undefined)	5
O=C(CCc1nnc(-c2ccc3c(c2)OCO3)o1)N(Cc1ccncc1)CC1CCCO1 (centres undefined)	16
c1ccc(-c2nc3ccccc3s2)nc1	25
O=[N+]([O-])c1cc(Br)cc(/C=N/n2cnnc2)c1O	28
Cc1ccc(F)cc1NC(=O)N1c2ccccc2NC(=O)CC1C (centres undefined)	15
COc1ccc(CC(=O)Nc2ccc(-c3noc(-c4ccc(Cl)cc4)n3)cc2)cc1	5
O=C(CCN1C(=O)c2ccccc2C1=O)C1=NN[C@@H]2C(=O)N(c3cccc(Cl)c3)C(=O)[C@H]12	6
